Screening results (PubChem BioAssay)
VDR inhibitor = inhibitors of human vitamin D receptor; VDR-SRC2-3 peptide fluorescence polarization, 2 h; 400,000 tested, 0.93% active; P11473; Potency, µM, without a hit: max response, negative = inhibition, most hits filed as inhibitors; AID 504847; active = well fitted inhibition curve with a large enough effect; inconclusive = small, poorly fitted or top-dose-only effect, or another doubt; inactive = no such curve, though single readings can be large or run the other way; note: series mostly up to about 120 µM
Target sequence (P11473 whole entry, looked up): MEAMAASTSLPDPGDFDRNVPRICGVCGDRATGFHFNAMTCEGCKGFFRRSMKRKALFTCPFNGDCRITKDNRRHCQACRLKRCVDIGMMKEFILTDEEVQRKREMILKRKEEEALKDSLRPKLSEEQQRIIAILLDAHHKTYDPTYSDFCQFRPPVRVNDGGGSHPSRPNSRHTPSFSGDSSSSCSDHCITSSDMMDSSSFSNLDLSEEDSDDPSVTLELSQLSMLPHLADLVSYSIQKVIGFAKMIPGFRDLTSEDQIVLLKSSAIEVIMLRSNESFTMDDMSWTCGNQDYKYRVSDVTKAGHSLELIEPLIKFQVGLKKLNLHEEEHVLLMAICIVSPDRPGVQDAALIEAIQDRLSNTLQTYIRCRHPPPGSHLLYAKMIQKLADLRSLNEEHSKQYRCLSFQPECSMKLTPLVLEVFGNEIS
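FP read-out; VDR + SRC2-3 coactivator peptide; 23 nl compound by pintool; 2 h RT incubation; reagents held at 4 deg C, protected from light.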
Active calls of the source: *; ? = inconclusive; & = joins results of further samples; [ ] = dose if it differs, or a comment. % is set by controls: 0 for no effect and ±100 for the full control effect; potency is the fitted concentration of half-maximal effect. Some of the compounds tested (hit frequency here may not be typical).

item | compound | VDR inhibitor
1 | CCC(C(=O)NCc1ccco1)n1nc(-c2ccc(OC)cc2)ccc1=O (configuration not stated) | -3%
2 | COCC(=O)N1CCC2(CCN(Cc3ccccc3OC)CC2)CC1 | 10%
3 | CCc1ccccc1NC(=O)N1CC(CC)Oc2ccc(Cl)cc21 (configuration not stated) | 6%
4 | Cc1ccc(-c2cn(-c3ccccc3)c(SCC(=O)NC3CCS(=O)(=O)C3)n2)cc1C (configuration not stated) | 8%
5 | Cc1sc(N/N=C/c2cccnc2)nc1-c1ccccc1 | -7%
6 | Fc1ccc(-n2c(Cc3cccs3)n[nH]c2=S)cc1Cl | 15%
7 | O=C1CCC(CCc2nc3ccccc3[nH]2)(c2ccccc2)C(=O)N1 (configuration not stated) | ?
8 | Cc1ccc(S(=O)(=O)N2CCOCC2)cc1C(=O)NC1CCCCC1 | 16%
9 | COc1c(C=O)c(CCN(C)C(=O)c2ccc(F)cc2)cc2c1OCO2 | 0%
10 | Cc1ccc(C)n1-c1ccc(C(=O)NCC2CCCO2)cc1 (configuration not stated) | 0%
11 | COc1ccc(-c2nc(SC(C)C(=O)c3c(N)n(C)c(=O)n(C)c3=O)n[nH]2)cc1 (configuration not stated) | -7%
12 | CCCn1c(SCC(=O)Nc2cc(S(=O)(=O)N3CCCCC3)ccc2C)n[nH]c1=O | -6%
13 | COc1cc(C(=O)N2CCN(c3ccccc3Cl)CC2)ccc1OCC(=O)N1CCOCC1 | -8%
14 | O=C(CSc1nnnn1C1CCCCC1)Nc1ccc2c(c1)OCO2 | 10%
15 | CCCCCCCNC(=O)C1(CC2CC(c3ccc(Cl)cc3)=NO2)CCN(C(=O)C2(C)CC2)CC1 (configuration not stated) | -11%
16 | Cc1ccc(S(=O)(=O)N2CCC(C(=O)OCC(=O)N(C)C3CCCCC3)CC2)cc1C | -19%
17 | CCOC(=O)c1c(S(=O)(=O)NCc2ccc(C)o2)c(C)n(C)c1C | 3%
18 | Cc1ccc(NC(=O)CCN2C(=O)c3cccc4cccc(c34)C2=O)cc1 | 13%
19 | c1ccc2c(c1)CCN(C1CCCCC1)C2 | 0%
20 | CCOC(=O)C1(c2ccccc2)NC(c2ccccc2C)C2C(=O)N(c3ccc4c(c3)OCO4)C(=O)C21 (configuration not stated) | -3%
21 | CCOC(=O)N1CCN(/C=C(\C#N)c2nc3ccccc3s2)CC1 | 10%
22 | CC(C)NC(=O)CN1CCC(c2nc3ccccc3[nH]2)CC1 | 4%
23 | COc1cc(CNCc2ccccn2)ccc1OCc1ccccc1Cl | 8%
24 | O=C(COC(=O)/C=C/c1cccc(Br)c1)NCCC1=CCCCC1 | -16%
25 | CN(C)S(=O)(=O)c1ccc(S(=O)(=O)N2CCN(CCC#N)CC2)cc1 | -5%
26 | CN(CC(=O)Nc1ccccc1Cl)C(=O)c1cc(C2CC2)nn1-c1ccccc1 | 6%
27 | Clc1ccc(/C=C/c2nc3ccccc3[nH]2)cc1 | 12%
28 | CC1CC(C)CN(c2ccc(-n3cnnn3)cc2[N+](=O)[O-])C1 (configuration not stated) | 10%
29 | C=CCN1C(=NC(=O)COc2ccc(Cl)cc2)SC2CS(=O)(=O)CC21 (configuration not stated) | -14%
30 | COc1ccc(-c2noc(N3CCC(C(=O)NCCCN4CCC(C)CC4)CC3)n2)cc1 | 11%
31 | CCc1ccc(CNC(=O)CCC(=O)N2Cc3cccc(OC)c3Oc3ncccc32)cc1 | -25%&-6%
32 | Cc1ccc(C)c(NC(=S)NCc2ccccc2)c1 | -15%
33 | CCOc1cc(/C=C2\SC(=S)N(N3CCOCC3)C2=O)ccc1O | -22%
34 | COc1cccc(-c2cc(C(F)(F)F)nc(N3CCC(C)CC3)n2)c1 | 0%
35 | CCOC(=O)c1ccc(NC(=O)c2cc3cc(C)ccc3n2C)cc1 | 6%
36 | Cc1ccc(CSc2nc3ccncc3n2Cc2nc(-c3ccccc3C)oc2C)cc1 | 0%
37 | O=C(Nc1ccccc1)/C(=C\c1cccs1)NC(=O)c1ccccc1 | -4%
38 | COc1ccc(CC(=O)OCC(=O)NC2CCCCC2)cc1 | -3%
39 | Cn1c(=O)c(Cc2ccccc2)c(O)c2ccccc21 | 12%
40 | N#Cc1sc2nc(-c3ccccc3)cc(C(F)(F)F)c2c1N | 9%

The list goes on, starting with the last 6 of the part before.
item | compound | VDR inhibitor
35 | CCOC(=O)c1ccc(NC(=O)c2cc3cc(C)ccc3n2C)cc1 | 6%
36 | Cc1ccc(CSc2nc3ccncc3n2Cc2nc(-c3ccccc3C)oc2C)cc1 | 0%
37 | O=C(Nc1ccccc1)/C(=C\c1cccs1)NC(=O)c1ccccc1 | -4%
38 | COc1ccc(CC(=O)OCC(=O)NC2CCCCC2)cc1 | -3%
39 | Cn1c(=O)c(Cc2ccccc2)c(O)c2ccccc21 | 12%
40 | N#Cc1sc2nc(-c3ccccc3)cc(C(F)(F)F)c2c1N | 9%
41 | COc1ccc(NC(=O)C2C3CCC(O3)C2C(=O)O)cc1OC (configuration not stated) | 10%
42 | O=C(O)CN1C(=O)/C(=C\c2cn(-c3ccccc3)nc2-c2ccccc2)SC1=S | ?
43 | CC(=O)c1c(COC(=O)c2ccccc2Cl)nc2ccccc2[n+]1[O-] | 1%
44 | Nc1nonc1C(=O)NCCNCc1ccccc1OCc1ccc(F)cc1 | 12%
45 | O=C1C2C3C=CC(O3)C2C(=O)N1N=Cc1ccc2c(c1)OCO2 (configuration not stated) | 1%
46 | Cc1nc(-c2ccc(S(=O)(=O)Nc3ccc(C)c(N(C)C)c3)cc2)co1 | -4%
47 | CC(=O)Cc1nsc(NC(=O)c2ccccc2Cl)n1 | -3%
48 | O=C(OCc1ccc([N+](=O)[O-])cc1Cl)c1cnccn1 | 3%
49 | CCc1nnc(NC(=O)c2nc(SCc3ccccc3C)ncc2Cl)s1 | 1%
50 | Cc1ccc(C)c(S(=O)(=O)N2CCN(CC(=O)Nc3cc(C)on3)CC2)c1 | 20%
51 | CC(C(=O)Nc1sc2c(c1C(=O)NCC1CCCO1)CCC2)N1C(=O)c2ccccc2C1=O (configuration not stated) | 4%
52 | CCOC(=O)COc1ccc(/C=C2/C(=O)NN(c3ccc(F)cc3)C2=O)cc1OC | -22%
53 | Cn1c(SCC(=O)Nc2ccc(F)cc2F)nnc1-c1cccnc1 | -26%
54 | Cc1ccc(NC(N)=S)cc1 | -5%
55 | COc1ccc(/C=C(\C#N)C(=O)OCC(=O)N2CC(C)OC(C)C2)cc1 (configuration not stated) | -8%
56 | Cc1nc(NC(=O)C23CCC(C)(C(=O)O2)C3(C)C)sc1C (configuration not stated) | 4%
57 | CSc1ccc(CCNC(=O)c2c(C)nn(-c3ccc(F)cc3)c2-n2cccc2)cc1 | 11%
58 | Brc1ccc(-c2cn3ccccc3n2)s1 | -17%
59 | COc1ccc(NC(=O)COC(=O)c2ccc(O)cc2)c([N+](=O)[O-])c1 | -5%
60 | CC1=NN(C(C#N)c2ccccc2C)C(c2ccccc2)C1 (configuration not stated) | -3%
61 | Cc1occc1-c1nnc(SCC(=O)NC2CCCC2)n1-c1ccccc1 | -15%
62 | COc1ccc(-c2cn[nH]c2-c2ccc(OC)cc2)cc1 | 24%
63 | CC(C)(C)C1CCC2(CC1)C(C#N)=C(SCC(=O)NC1CCCCC1)NC(=O)C2C#N (configuration not stated) | 1%
64 | O=C(CC1Sc2ccccc2NC1=O)NNc1cccc(Cl)c1Cl (configuration not stated) | 0%
65 | CCCCNC(=O)c1ccccc1SCC(=O)NC1CCCCCCC1 | -10%
66 | Cc1ccc2c(c1)N(C(=O)CCC(=O)NCCCN1CC(C)CC(C)C1)CCO2 (configuration not stated) | -4%
67 | Cc1ccc2c(CSc3nc4ccccc4c(=O)n3CCCO)cc(=O)oc2c1C | 0%
68 | CC(NC(=O)COC(=O)c1cc(=O)[nH]c2ccccc12)c1ccccc1 (configuration not stated) | -3%
69 | Cn1c(=Nc2ccc(N3CCOCC3)cc2)ccc2ccccc21 | 6%
70 | O=C(NCCCn1ccnc1)c1nc(Cn2cc(Br)cn2)no1 | -6%
71 | Cc1nc(CS(=O)(=O)c2ccccc2)cc(Sc2ccccc2Cl)n1 | -6%
72 | O=C(Cn1nnc(-c2ccccc2)n1)N1CCCCC1 | -4%
73 | CCNc1c(NC(C)=O)c(=O)oc2ccccc12 | -15%
74 | Cc1cc2nnc(SCC(=O)OC(C)C)n2c2ccccc12 | 22%
75 | Cc1ccc2nc(SCC(=O)NNC(=O)c3ccccc3)[nH]c2c1 | -6%
76 | O=C(NC1CCCN(Cc2ccccc2F)C1)C1CCC1 (configuration not stated) | -15%
77 | Cc1ccc(S(=O)(=O)NC2c3cccc4cccc(c34)C2Sc2nncn2C)cc1 (configuration not stated) | -13%
78 | c1ccc(CSc2cc3ccccc3[nH]2)cc1 | -14%
79 | O=C(CCN1C(=O)C2CCCCC2C1=O)Nc1nc2c(F)cc(F)cc2s1 (configuration not stated) | -7%
80 | O=C1CCCc2sc3c(c2N1)CCCCC3 | -14%
81 | CC(C)N1CCN(Cc2cnc(-c3ccccc3)s2)CC1CCO (configuration not stated) | 0%
82 | O=C(c1ccco1)N1CCN(S(=O)(=O)c2ccc(C3CCCCC3)cc2)CC1 | -13%
83 | O=C(CSc1nc(-c2ccccc2)no1)N1CCN(c2ccc(F)cc2)CC1 | 15%
84 | OCCC1CN(Cc2ccc3ncccc3c2)CCN1Cc1ccccc1 (configuration not stated) | -8%
85 | CCN1CCN(C(=O)/C=C\C(=O)O)CC1 | -10%
86 | Cc1nc2ccccc2c2oc(C(=O)N3CCC(N4CCCCC4)CC3)cc12 | -17%
87 | CCCN1CCC(NCc2cn(C)nc2-c2ccc(Oc3ccccc3)cc2)CC1 | 1%
88 | CCOC(=O)c1[nH]c(C)c(C(=O)/C=C/c2ccc(C(=O)O)cc2)c1C | -15%
89 | CCN(CC)c1ccc(NC(=O)Cn2c(C(C)NC(=O)c3ccc(C)cc3)nc3ccccc32)cc1 (configuration not stated) | 9%
90 | C#CCNC(=O)C1=C[C@@H](c2ccc(C#C)cc2)C[C@@H](OCCCCO)O1 | -28%
91 | COc1ccc(C2/C=C\CN(C(=O)c3ccccc3)CC(=O)N2Cc2ccc(F)cc2)cc1 (configuration not stated) | -12%&-18%
92 | CCOC(=O)Cn1nc(-c2ccccc2)c2cnc3ccc(CC)cc3c21 | -17%
93 | O=S(=O)(NNc1ccc(Cl)nn1)c1ccc(F)cc1 | -11%
94 | CCOC(=O)C1CCN(C(=O)/C=C/c2ccc(S(=O)(=O)N3CCOCC3)cc2)CC1 | -21%
95 | Cc1ccc(CNC(=O)CNC(=O)[C@@H]2Cc3ccccc3CN2C(=O)OC(C)(C)C)cc1 | 7%
96 | COc1ccc(CCNCC(O)c2ccccc2)cc1 (configuration not stated) | 11%

(next part)
item | compound | VDR inhibitor
97 | COc1cccc2[nH]c(C(=O)NCCCN3CCCC3=O)cc12 | -18%
98 | CCCN1CNc2c(c(=O)[nH]c(=S)n2CCc2ccccc2)C1 | 2%
99 | COc1cc(NC(=O)c2c(-c3ccc(C)cc3)nnc3ccccc23)cc(OC)c1OC | 6%
100 | CCCNS(=O)(=O)c1cc(Br)cc2c1N(C(=O)CC)CC2 | 2%
101 | CCc1ccc(NC(=O)C2CCCN2S(=O)(=O)c2ccc3nc(-c4ccccc4)[nH]c3c2)cc1 (configuration not stated) | 14%
102 | Cc1cc(C)c(NS(=O)(=O)c2ccc3c(c2)NC(=O)C(C)C(=O)N3)c(C)c1 (configuration not stated) | -15%
103 | Cc1nn(CC(=O)NCCCN2CCCC2=O)c(C)c1[N+](=O)[O-] | -2%
104 | Cc1[nH]c2ccccc2c1/C=C/c1cc[n+](C)cc1 | 3%

Part of the list above, with each value named.
99	COc1cc(NC(=O)c2c(-c3ccc(C)cc3)nnc3ccccc23)cc(OC)c1OC
  VDR inhibitor = 6%

100	CCCNS(=O)(=O)c1cc(Br)cc2c1N(C(=O)CC)CC2
  VDR inhibitor = 2%

101	CCc1ccc(NC(=O)C2CCCN2S(=O)(=O)c2ccc3nc(-c4ccccc4)[nH]c3c2)cc1 (configuration not stated)
  VDR inhibitor = 14%

(listing goes on)
item | compound | VDR inhibitor
105 | CCN(CC)S(=O)(=O)c1ccc(C)c(NC(=O)CSc2nnnn2C)c1 | 8%
106 | Cn1c(Nc2ccc(Cl)cc2)cc(=O)n(C)c1=O | 0%&-23%
107 | COc1cc(S(=O)(=O)N2CCOCC2)ccc1NC(=O)CN1c2cccc3cccc(c23)S1(=O)=O | -13%
108 | CC(=O)Nc1ccc(NC(=O)CCCSc2nc3ccccc3[nH]2)cc1 | 32%[activator]
109 | COc1ccc(Cl)cc1NC(=O)C/C(C)=N/NC(=O)c1ccc(O)cc1 | -22%
110 | Cc1ccccc1NC(=O)c1c(C)oc2ccc(O)c(CN3CCOCC3)c12 | -5%
111 | Cc1ccc(NC(=O)CCc2ccc(C)o2)cc1 | -15%
112 | Cc1cc(Cl)nc(-c2ccccc2O)n1 | 0%
113 | FC(F)(F)c1cc(CCN2C(=S)NC[C@@H]2CC2CCCCC2)cc(C(F)(F)F)c1 | -4%
114 | CN(C)S(=O)(=O)c1ccc(N2CCCC2)c(C(=O)N2CCC(C(N)=O)CC2)c1 | -17%
115 | O=[N+]([O-])c1c(Cl)cccc1-c1c[nH]cc1Cl | -5%
116 | O=C1C=C(c2ccccc2)C[C@@H](c2ccc3c(c2)OCO3)C1 | -2%
117 | Cc1ccccc1CCN1CCCC(CN(C)CC(C)(C)C)C1 (configuration not stated) | -7%
118 | Cn1c(=O)c2c(ncn2CC(=O)N2CCc3ccccc3C2)n(C)c1=O | -11%
119 | COC(=O)c1ccc(NC(=S)NC2CCCCC2)cc1 | 13%
120 | COc1cc2c(cc1OC)C(c1ccccc1OC(C)C)CC(=O)N2 (configuration not stated) | -1%
121 | CCOC(=O)c1sc(NC(=O)c2cc3nc(-c4ccc(Br)cc4)cc(C(F)(F)F)n3n2)c(C(=O)OCC)c1C | 10%
